# FGF22 binding = binders of human FGF22 protein, primary screen, FGF22 synaptogenesis inhibitor project, biophysical, thermal shift, single point. recombinant FGF22 thermal shift, SYPRO orange fluorescence; percent of sucrose octasulfate shift, DMSO zero. calls only at 9.99 µM. 340,000 tested, 1.5% active. Fibroblast growth factor 22 (Homo sapiens), Q9HCT0;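 active = melting point raised past a set limit in the mean and every replicate; three in four hits are not shown here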
# Target sequence (Q9HCT0 whole entry, looked up): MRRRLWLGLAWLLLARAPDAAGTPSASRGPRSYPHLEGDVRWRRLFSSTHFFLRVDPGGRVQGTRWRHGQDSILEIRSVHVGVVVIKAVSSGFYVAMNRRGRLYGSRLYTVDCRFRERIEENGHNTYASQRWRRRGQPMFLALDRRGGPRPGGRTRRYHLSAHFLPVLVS
# Ecoli rRNA inh = reduced GFP signal of wild-type E. coli, primary screen, bacterial rRNA inhibitor project, GFP/RFP fluorescence, OD600, single point | 350,000 tested, 1.6% active | GFP signal change (wild-type ribosome), % (no concentration beside the values) | E. coli WT GFP vs humanized-ribosome RFP mutants, 24 h; hits give low values; DMSO median 0, no signal -100;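 active = significant combined selectivity score with lowered wild-type GFP, culture density cut under 30%, mutant RFP and density less affected; inactive = any of these conditions unmet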; note: one replicate is shown; some compounds called inactive have numbers as strong as hits
# Ecoli growth = E. coli growth inhibition, primary screen, OD600 | OD600 absorbance (concentration not given with the values) | AID 1053175, 2014 | 330,000 tested, 0.21% active | Escherichia coli growth, 23 h; hits give low values;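 active = OD600 absorbance below the run mean of sample wells minus 3.6 SD, in any replicate, cut at about 0.56 in these data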;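 note: stock transfer was 300 nL into about 60 µL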
# UCH37 DUB inh = inhibitors of human UCH37 deubiquitinase, primary screen, biochemical, Ub-AMC cleavage, fluorescence; Ubiquitin carboxyl-terminal hydrolase isozyme L5 (Homo sapiens), Q9Y5K5; purified proteasome/UCH37; inhibition, % (concentration not given with the values); 330,000 tested, 0.33% active; AID 588478, 2011;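 active = mean of two replicates above 20%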;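 note: 0% = compound-free wells with enzyme and 100% = wells lacking proteasome; stock transfer was 100 nL into about 20 µL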
# Target sequence (Q9Y5K5 whole entry, looked up): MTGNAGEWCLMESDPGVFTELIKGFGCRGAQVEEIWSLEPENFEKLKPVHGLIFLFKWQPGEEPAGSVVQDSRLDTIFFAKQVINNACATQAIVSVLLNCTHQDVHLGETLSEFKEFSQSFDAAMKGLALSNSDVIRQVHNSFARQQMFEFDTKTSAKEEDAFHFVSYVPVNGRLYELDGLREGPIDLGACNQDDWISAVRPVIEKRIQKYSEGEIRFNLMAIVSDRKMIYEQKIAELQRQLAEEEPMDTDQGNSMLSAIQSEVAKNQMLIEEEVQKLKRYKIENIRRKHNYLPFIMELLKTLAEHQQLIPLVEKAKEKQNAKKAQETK
#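 Reagent: Ub-AMC substrate; assay system: Proteasome-associated human UCH37 deubiquitinase; controls: no-proteasome and no-compound wells; read-out: % inhibition of Ub-AMC cleavage fluorescence; timing: 30 min preincubation with enzyme, 25 min cleavage at room temperature; signal: AMC fluorescence from Ub-AMC cleavage, excitation 355 nm, emission 460 nm; buffer or medium: Tris-HCl pH 7.4 plus ovalbumin, ATP-MgCl2, DTT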
# HNF4A DNA FP = change in binding of human HNF4A to DNA, primary screen, biochemical, fluorescence polarization, FITC-DNA. Hepatocyte nuclear factor 4-alpha (Homo sapiens), P41235. 1 h. activity change, % at 10 µM. 360,000 tested, 0.3% active. AID 1224865, 2016; in the data active = activity change above about 30%, passing the limit was not always enough;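 note: controls were the assay level and a saturating level of protein; the project sought stronger binding though the title names inhibitors; some compounds called inactive have numbers as strong as hits; positive values seem to mean higher polarization but the record does not say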
# Target sequence (P41235 whole entry, looked up): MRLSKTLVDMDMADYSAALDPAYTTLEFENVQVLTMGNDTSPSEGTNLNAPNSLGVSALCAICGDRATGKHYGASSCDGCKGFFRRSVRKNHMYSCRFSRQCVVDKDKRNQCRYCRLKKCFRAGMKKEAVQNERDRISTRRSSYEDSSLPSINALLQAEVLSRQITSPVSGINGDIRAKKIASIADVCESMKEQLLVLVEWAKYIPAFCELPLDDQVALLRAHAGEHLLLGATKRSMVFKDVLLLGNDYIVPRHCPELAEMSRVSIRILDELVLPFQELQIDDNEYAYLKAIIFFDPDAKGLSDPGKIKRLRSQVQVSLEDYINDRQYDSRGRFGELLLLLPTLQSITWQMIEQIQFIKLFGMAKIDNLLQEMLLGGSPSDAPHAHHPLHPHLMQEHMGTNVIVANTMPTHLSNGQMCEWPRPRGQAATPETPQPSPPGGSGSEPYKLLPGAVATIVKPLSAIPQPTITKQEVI
# Beta2AR agonist = beta2AR agonists driving receptor internalization, primary screen, cell-based, FAP fluorogen, flow cytometry. Beta-2 adrenergic receptor (Homo sapiens), P07550. Am2.2-beta2AR cells; reference of the scale not given here. 340,000 tested, 0.43% active. response, % (test concentration not listed);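 active = response above a set limit, near 3 SD of response in nonfluorescent compounds, cut at about 42% in these data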;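 note: stock transfer was 100 nL into about 11 µL; a reference agonist was the positive control; negative values mostly stem from fluorescent compounds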
# ALR inh = inhibitors of human ALR sulfhydryl oxidase, primary screen, biochemical, H2O2 detection, HRP-luminol luminescence, single point | AID 485317, 2010 | purified ALR, DTT oxidation | FAD-linked sulfhydryl oxidase ALR (Homo sapiens), P55789 | 290,000 tested, 3.8% active | inhibition, % (concentration not given with the values);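 active = mean and each replicate at 75% or more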;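 note: stock transfer was 7.5 nL into about 7.5 µL; 0% = neutral wells and 100% = wells with inactivated enzyme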
# Ecoli rRNA inh OD600 = recorded beside Ecoli rRNA inh, whose call it bears; OD600 change, %; measured here: OD600 growth;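 optical density of the mix in the first replicate; 0 = DMSO median and -100 = no signal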
# Ecoli rRNA inh RFP = also measured in Ecoli rRNA inh; calls as there; RFP signal change, %; measured here: RFP humanized mutant strains;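 first replicate; 0 = DMSO median and -100 = no signal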
# Numbers without * were called inactive; i = inactive; / = not tested or not shown. An excerpt; count on the stated rates, not on these rows.
SMILES,FGF22 binding,Ecoli rRNA inh,Ecoli rRNA inh OD600,Ecoli rRNA inh RFP,Ecoli growth,UCH37 DUB inh,HNF4A DNA FP,Beta2AR agonist,ALR inh
O=C(NC(=S)Nc1ccccc1)c1ccc(-c2ccccc2)cc1,i,16,18,3.2,0.72,1.9,-0.9,3,-20
Cc1ccc(S(=O)(=O)N2CCN(CC(=O)NC(C)c3ccccc3)CC2)cc1 (stereo not drawn),i,-3,-14,-2.7,0.65,3.2,1.8,3,/
CC1(OC(=O)CCc2ccccc2)C(=O)C=C2C=C(c3ccc(C#N)cc3)N(CCc3ccccn3)C=C2C1=O (stereo not drawn),i,-2,11,5.4,0.67,0.0,-6.6,-4,-11
O=C(c1cccc2ccccc12)C1CCCN(C(=O)CCN2CCCO2)C1 (stereo not drawn),i,/,/,/,0.72,3.8,-2.2,-1,-50
CCn1c(O)c(N=N)c2ccccc21,i,2,-12,-9.4,0.63,6.4,1.9,0,41
Cc1ccc(S(=O)(=O)N2CCN(c3ncnc4sccc34)CC2)cc1C,i,8,22,13,0.71,0.9,6.3,-12,/
CCCCn1c(N)c(N(CC(C)C)C(=O)CN(C)Cc2cccc(OC)c2)c(=O)[nH]c1=O,/,/,/,/,0.73,1.1,0.4,-4,-1
O=C(NCc1ccc2c(c1)OCO2)C(=O)NCC(c1ccco1)N1CCN(c2ccccc2)CC1 (stereo not drawn),i,3,6,-1.6,0.74,2.6,-4.7,6,-1
O=C(c1ccc(Cn2cc(Cl)c([N+](=O)[O-])n2)cc1)N1CCN(Cc2ccccc2)CC1,i,9,-10,-4.5,0.66,1.7,2.5,-12,-3
O=C(O)c1ccc(NS(=O)(=O)c2cc(Cl)sc2Cl)cc1,i,9,7,0.4,0.68,6.3,-0.5,-1,1
O=C(CC(c1ccccc1)c1ccccc1O)NCc1ccccc1 (stereo not drawn),i,-28,-32,-4.5,0.7,-0.6,-2.3,0,26
O=C(N/N=C/c1c[nH]c2ccccc12)C1COc2ccccc2O1 (stereo not drawn),/,/,/,/,/,/,0.5,3,1
COc1ccc(OCC(=O)N/N=c2\oc3c(OC)cccc3cc2C(N)=O)cc1,/,/,/,/,/,/,11,5,-3
C=CCSc1nc2ccccc2n1S(=O)(=O)c1ccc(C)cc1,/,/,/,/,0.72,6.0,1.6,-1,-2
Cn1nccc1C(=O)NC1CCCc2c1cnn2-c1cc(F)cc(F)c1 (stereo not drawn),i,-2,-2,-3.8,0.65,-0.1,4.1,3,25
COc1cc(/C=N/NC(=S)NC(C)C)ccc1OCC(=O)Nc1c(C)cc(C)cc1C,/,/,/,/,/,/,-0.9,7,-7
COc1cc(C=NO)nc(-c2ccccn2)c1,i,-28,-64,-8.1,/,/,0.7,-32,/
COc1cc(NC(=O)Cc2ccc(S(=O)(=O)N3CCOCC3)s2)c(OC)cc1Cl,/,-3,-5,0.0,0.66,1.5,2.5,3,-16
O=C(C1=C[C@@H]2[C@H]3C(=O)N(c4cccc(Cl)c4)C(=O)[C@H]3[C@@H](C(=O)c3ccc(Cl)cc3)N2C=C1)c1ccccc1,/,/,/,/,/,/,18,2,-3
Cc1cc(/C=C2\SC(=S)NC2=O)c(C)[nH]1,/,0,27,-1.2,/,11,57*,-9,64
CS(=O)(=O)N1Cc2cc(C(=O)NCC3CCCCC3)nc(-c3cccc(-c4cccnc4)c3)c2[C@H]1CCO,i,-3,0,12,/,/,2.8,/,/
O=C(N1CCOCC1)N1[C@H](COCc2ccccc2)C=CS1(=O)=O,i,-4,-7,0.3,/,/,0.7,/,/
CCCCN1C(=O)/C(=C2\SC(N3CCOCC3)=NC2=O)c2ccccc21,i,3,2,3.0,0.7,3.6,2.4,-8,-2
Cc1ccc(C(=O)Nc2ccc3c(c2)nc(CCNC(=O)c2ccco2)n3C)cc1,i,-1,5,-2.1,0.66,-6.8,-0.6,-15,1
COc1ccc(C2C(C#N)=C(N)Oc3cc(N)ccc32)cc1 (stereo not drawn),i,14,20,1.3,0.67,-2.7,1.0,-2,95*
CNc1nc(C)nc(-n2nc(C)cc2C)n1,/,/,/,/,0.73,-1.8,-1.7,-9,5
C=CCNC(=O)CC(=O)N/N=C/c1ccc(F)cc1,/,/,/,/,/,/,-0.8,-3,-2
COc1ccc(OC)c(/C=N/NC(=O)c2c(C)nc3ccc(C)cn23)c1,i,10,8,3.2,/,/,-2.5,1,/
CN(C)c1ccc(CN(C(=O)COc2ccccc2)C2CCS(=O)(=O)C2)cc1 (stereo not drawn),/,/,/,/,0.67,2.5,3.4,-4,24
Cc1ccc(N(C(=O)c2csnn2)C(C(=O)NC2CCCCC2)c2ccncc2)cc1 (stereo not drawn),i,5,3,-3.0,0.7,5.6,0.3,-4,2
CCc1ccc(OCC(=O)OCC(=O)c2ccc3c(c2)NC(=O)CO3)cc1,i,11,5,-8.0,0.72,4.3,-1.1,-2,3
COc1ccc(-c2cc(C(F)(F)F)n3ncc(C(=O)N4CCc5ccccc5C4)c3n2)cc1,i,-5,0,-1.6,0.73,-83,-1.2,-4,-2
COc1cc(C(O)c2nc(-c3ccc4ccccc4c3)cs2)ccc1F (stereo not drawn),i,-11,-29,4.1,/,/,-0.2,/,/
CC(NC(=O)CN1CCOCC1)c1ccccc1 (stereo not drawn),i,8,7,2.7,0.66,0.8,2.1,4,-4
COC(=O)C1=C(C)N(C)C(C)=C(C(=O)OC)C1c1ccccn1,/,/,/,/,0.79,4.4,0.1,2,2
O=C(Nc1cnn(Cc2c(Cl)cccc2Cl)c1)C(c1ccccc1)c1ccccc1,/,/,/,/,0.73,4.2,-3.8,43*,-2
Cn1c(N)c(C(=O)COC(=O)c2ccco2)c(=O)n(C)c1=O,/,/,/,/,0.76,-4.8,0.0,-9,0
Cc1ccc(C2=NS(=O)(=O)N(C)C(C(=O)NC3CCCCC3)=C2)cc1,i,-4,-4,-1.4,0.72,3.1,-2.1,-2,-12
O=C(Nc1cccc(Cl)c1)N(CCCN1CCOCC1)Cc1ccccc1F,i,-62,-80,-33,0.63,4.4,-4.4,-11,-5
Cc1cc(NC(=O)/C=C/c2ccccc2Cl)n(-c2nc3ccccc3[nH]2)n1,i,4,26,8.8,0.69,-4.5,-1.7,-31,0
CCOc1ccc(N2CC(C(=O)N3CCCc4ccccc43)CC2=O)cc1 (stereo not drawn),i,4,7,2.3,0.72,-1.9,3.6,-7,-3
COc1ccc(OC)c(NC(=S)N2CCc3ccccc3C2)c1,i,3,2,-2.1,0.68,3.7,2.7,2,-34
O=c1oc(Nc2ccccc2Cl)nc2ccccc12,i,-2,-5,1.5,0.7,1.4,-4.8,10,/
CC(C)(C)OC(=O)NCc1ccc(NC(=O)c2nc[nH]c2C(=O)N[C@@H](Cc2ccccc2)C(=O)OC(C)(C)C)cc1,/,/,/,/,/,-1.8,3.1,17,1
N=c1oc2ccc(Cl)cc2cc1C(=O)NC1CCCCCC1,i,11,10,4.2,0.7,1.2,-2.2,11,1
Cc1oc(C(C)(C)C)cc1C(=O)Nc1ccc2c(c1)OCCO2,/,/,/,/,0.76,-1.7,-2.2,4,72
CC(OC(=O)C1CCCC1)C(=O)Nc1ccc(S(N)(=O)=O)cc1 (stereo not drawn),i,1,6,-3.6,/,/,4.3,4,/
CCOc1ccc(C(=O)OCC(=O)N2CC(C)OC(C)C2)cc1OCC (stereo not drawn),i,7,3,-2.6,0.63,3.6,0.9,-5,-2

# Entries of single compounds from above:
# `CCOc1ccc(C(=O)OCC(=O)N2CC(C)OC(C)C2)cc1OCC` (stereo not drawn) reads FGF22 binding: i; Ecoli rRNA inh: 7; Ecoli rRNA inh OD600: 3; Ecoli rRNA inh RFP: -2.6; Ecoli growth: 0.63; UCH37 DUB inh: 3.6; HNF4A DNA FP: 0.9; Beta2AR agonist: -5; ALR inh: -2
# `N=c1oc2ccc(Cl)cc2cc1C(=O)NC1CCCCCC1` reads FGF22 binding: i; Ecoli rRNA inh: 11; Ecoli rRNA inh OD600: 10; Ecoli rRNA inh RFP: 4.2; Ecoli growth: 0.7; UCH37 DUB inh: 1.2; HNF4A DNA FP: -2.2; Beta2AR agonist: 11; ALR inh: 1

# The main list resumes, repeating the two entries before the break.
SMILES,FGF22 binding,Ecoli rRNA inh,Ecoli rRNA inh OD600,Ecoli rRNA inh RFP,Ecoli growth,UCH37 DUB inh,HNF4A DNA FP,Beta2AR agonist,ALR inh
CC(OC(=O)C1CCCC1)C(=O)Nc1ccc(S(N)(=O)=O)cc1 (stereo not drawn),i,1,6,-3.6,/,/,4.3,4,/
CCOc1ccc(C(=O)OCC(=O)N2CC(C)OC(C)C2)cc1OCC (stereo not drawn),i,7,3,-2.6,0.63,3.6,0.9,-5,-2
O=C(COC(=O)Cn1[nH]c(=O)c2ccccc2c1=O)Nc1c(Cl)cccc1C(F)(F)F,i,-7,-9,3.5,/,/,-2.1,4,-3
Cc1ccc(-c2cn3c(n2)CCCC3)cc1,/,/,/,/,0.71,-1.6,-1.0,-1,/
S=C1SCN(CCc2ccccc2)CN1CCc1ccccc1,i,-10,-7,3.8,/,/,12,/,/
COc1ccccc1/C=C/C=N/NC(=O)c1ccccn1,i,-11,-9,-1.1,/,/,4.9,4,-9
CC1=C(C(N)=O)C(c2sccc2C)n2nnnc2N1 (stereo not drawn),/,/,/,/,0.73,-1.3,2.3,7,7
CN=C(Nc1cc(C)nn1-c1ccccc1)c1ccc(F)cc1,i,10,16,7.9,0.69,0.7,2.5,3,3
CCN(CC)CCN1C(=O)c2ccccc2NC1c1ccc(F)cc1 (stereo not drawn),/,-3,17,-3.6,0.65,i,1.2,-13,2
COc1cc(OC)c(/C=N/n2c(C3CCCCC3)n[nH]c2=S)c(OC)c1,i,6,4,1.0,/,/,-2.8,-4,/
COc1ccc([C@H]2N[C@]3(CCCN(Cc4ccco4)C3=O)[C@H]3C(=O)N(Cc4ccccc4)C(=O)[C@@H]23)cc1,i,6,-1,9.9,/,/,4.1,/,/
CC(=O)NCCn1ccc2ccccc21,/,/,/,/,0.74,1.0,-0.9,-7,-19
O=C(/C=C/c1ccc(Cl)cc1)Nc1ccc(S(=O)(=O)Nc2ncccn2)cc1,i,14,8,-0.5,0.68,0.3,1.4,4,3
Oc1ccc(C2=NNC(c3ccc(O)cc3)=NN2)cc1,i,14,14,2.2,0.67,-0.1,0.4,0,37
COC(=O)c1c(N)sc(C(=O)NCCc2ccccc2)c1C,i,-8,-11,-1.1,/,/,-3.9,-1,44
O=S(=O)(c1ccccc1)c1ccc(NCc2ccco2)cc1,/,/,/,/,0.73,0.8,-4.0,11,-1
C=CCn1c(COc2ccc(F)cc2)nnc1SCC(=O)N1CC(=O)Nc2ccccc21,/,/,/,/,0.65,0.8,2.1,-6,-6
COc1ccc(OC)c(NC(=O)CCN2CCCCCC2)c1,/,/,/,/,0.72,-1.3,-1.8,8,-15
Cc1ccccc1-n1nnnc1SC(C)C(=O)NC1CCCc2ccccc21 (stereo not drawn),/,/,/,/,0.69,0.3,-0.5,4,0
CCOC(=O)CC1C(=O)NCCN1C(=O)c1cc2c(=O)n3ccccc3nc2s1 (stereo not drawn),/,/,/,/,0.72,i,/,/,-9
